Screening data: PubChem, several laboratories
ALR inh = inhibitors of human ALR sulfhydryl oxidase, primary screen, biochemical, H2O2 detection, HRP-luminol luminescence, single point | purified ALR, DTT oxidation | FAD-linked sulfhydryl oxidase ALR (Homo sapiens), P55789 | 3.8% of 290,000 active | inhibition, % (test concentration not listed);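 active means mean and each replicate at 75% or more; inconclusive means only one of the two met; inactive means neither met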;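 further: stock transfer was 7.5 nL into about 7.5 µL; 0% = neutral wells and 100% = wells with inactivated enzyme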
Target sequence (P55789 whole entry, looked up): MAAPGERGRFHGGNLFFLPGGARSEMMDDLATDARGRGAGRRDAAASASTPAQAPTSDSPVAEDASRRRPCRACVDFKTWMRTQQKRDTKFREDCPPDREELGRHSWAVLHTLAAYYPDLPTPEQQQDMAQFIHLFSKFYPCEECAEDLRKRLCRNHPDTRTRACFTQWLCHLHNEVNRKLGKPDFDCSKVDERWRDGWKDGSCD
Beta2AR agonist = beta2AR agonists driving receptor internalization, primary screen, cell-based, FAP fluorogen, flow cytometry; 0.43% of 340,000 active; AID 504454, 2011; Am2.2-beta2AR cells; reference of the scale not given here; response, % (concentration not given with the values);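 active means response above a set limit, near 3 SD of response in nonfluorescent compounds, cut at about 42% in these data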;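 further: stock transfer was 100 nL into about 11 µL; a reference agonist was the positive control; negative values mostly stem from fluorescent compounds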
Target sequence (P07550 whole entry, looked up): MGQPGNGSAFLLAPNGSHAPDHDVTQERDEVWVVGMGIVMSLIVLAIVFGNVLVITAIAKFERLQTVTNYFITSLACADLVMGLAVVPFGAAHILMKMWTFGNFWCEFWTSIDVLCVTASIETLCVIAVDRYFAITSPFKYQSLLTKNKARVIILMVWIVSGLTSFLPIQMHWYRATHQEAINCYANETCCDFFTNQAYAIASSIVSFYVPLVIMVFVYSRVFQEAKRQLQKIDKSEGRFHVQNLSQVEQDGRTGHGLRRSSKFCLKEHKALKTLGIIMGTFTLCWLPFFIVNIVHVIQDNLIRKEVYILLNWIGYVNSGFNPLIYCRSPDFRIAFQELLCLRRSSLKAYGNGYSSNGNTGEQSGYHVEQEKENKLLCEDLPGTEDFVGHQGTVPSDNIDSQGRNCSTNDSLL
RanGTP-Imp inh = inhibitors of RanGTP-importin-beta interaction, primary screen, biochemical, FRET, CFP-Ran, YFP-importin-beta, homogeneous | 1.1% of 300,000 active | Ran GTPase (GTP-bound) - importin-beta complex | AID 2216, 2009 | cell-free CFP-Ran/YFP-importin-beta FRET ratio | inhibition, % (concentration not given with the values);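 active means most replicates above 15%; inconclusive means exactly half above 15%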;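 further: 0% = DMSO wells and 100% = Ran loaded with GDP instead of GTP; wells of about 40 µL received 100 nL stock; the first replicate is given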
Vif TR-FRET = inhibitors of Vif binding to APOBEC3G peptide, primary screen, biochemical, TR-FRET, GST-Vif 1-94, biotin-A3G peptide, dose response retest (AID 1117319); TR-FRET GST-Vif / biotin-A3G peptide binding; higher % means a stronger effect; test concentration not given here; strong numbers were not always called active; inhibition, %; hits with a dose series show IC50 in µM; 0.57% of 260,000 active;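 active means above the screen mean plus three standard deviations and confirmed in dose response; inconclusive means results disagree or hit not tested in dose response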;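 further: Vif residues 1-94 fused to GST binding biotinylated APOBEC3G peptide 110-148; 0% = full assay without inhibitor and 100% = GST in place of GST-Vif; retest series ran down from 100 µM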
HNF4A DNA FP = change in binding of human HNF4A to DNA, primary screen, biochemical, fluorescence polarization, FITC-DNA; 1 h; 0.3% of 360,000 active; activity change, % at 10 µM; Hepatocyte nuclear factor 4-alpha (Homo sapiens), P41235; AID 1224865, 2016; in the data active means activity change above about 30%, passing the limit was not always enough;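 further: controls were the assay level and a saturating level of protein; the project sought stronger binding though the title names inhibitors; some compounds called inactive have numbers as strong as hits; positive values seem to mean higher polarization but the record does not say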
Target sequence (P41235 whole entry, looked up): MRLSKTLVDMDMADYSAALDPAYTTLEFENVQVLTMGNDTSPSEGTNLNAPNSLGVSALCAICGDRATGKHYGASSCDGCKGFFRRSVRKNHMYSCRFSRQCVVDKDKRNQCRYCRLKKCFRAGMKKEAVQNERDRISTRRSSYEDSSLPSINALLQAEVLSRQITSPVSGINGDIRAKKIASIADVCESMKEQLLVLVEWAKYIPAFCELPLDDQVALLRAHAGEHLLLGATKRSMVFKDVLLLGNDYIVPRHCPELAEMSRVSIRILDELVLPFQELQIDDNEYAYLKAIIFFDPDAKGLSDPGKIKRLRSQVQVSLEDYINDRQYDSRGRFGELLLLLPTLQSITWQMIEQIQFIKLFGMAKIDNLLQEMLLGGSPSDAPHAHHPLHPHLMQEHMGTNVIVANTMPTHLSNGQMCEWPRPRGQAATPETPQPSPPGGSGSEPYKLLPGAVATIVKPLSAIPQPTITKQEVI
LANA-H2A inh = blockers of LANA interaction with H2A/H2B – biochemical, FP readout, HTS, primary screen; inhibition, % (test concentration not listed); cell-free LANA-H2A/H2B peptide, fluorescence polarization; 0.6% of 320,000 active; Protein LANA1 (Human herpesvirus 8 type P (isolate GK18)), Q9QR71; in the data active means inhibition mostly above about 10%, no sharp cut-off; inactive means mostly below about 6.7%;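 further: stock transfer was 7.5 nL into about 10 µL; 0% = median of vehicle wells and 100% = median of positive control wells; one replicate is shown; the record names a cut of 25% in any replicate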
Calb FLC = C. albicans growth inhibition with fluconazole, primary screen, CaCi-2 strain, Alamar Blue fluorescence; C. albicans CaCi-2 (fluconazole-resistant clinical isolate) + fluconazole, 48 h; growth inhibition, % (concentration not given with the values); 0.57% of 300,000 active;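 active means most replicates above 75%; inconclusive means exactly half above 75%; inactive means most below 75%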;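 further: all wells also contain fluconazole at 8 µg/ml as a sub-toxic cotreatment; 0% = median of DMSO wells and 100% = median of geldanamycin control wells; wells of about 8 µL received 7.5 nL stock; the first replicate is given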
The depositor's hits bear a star; ? = inconclusive; . = no result given; ! = not active in a repeat. No enrichment for hits; any-hit rate near 6.3%.

SMILES	ALR inh	Beta2AR agonist	RanGTP-Imp inh	Vif TR-FRET	HNF4A DNA FP	LANA-H2A inh	Calb FLC
O=C(CSc1ccc(-c2ccccn2)nn1)c1ccccc1	11	-6	0.9	?	6.4	-0.5	45
Cc1cc(C)c(S(=O)(=O)N2CCN(C)CC2)c(C)c1	0	-3	6.0	17%	0.5	-1.0	20
Cc1[nH]c2ccccc2c1SCC(=O)N1CCCCCC1	72	-10	-2.8	3%	-2.7	-4.5	4
COCCCN1C(=O)CC(C(=O)OC)=C1C	-6	-1	-0.7	0%	0.3	-4.3	-5
C/[N+]([O-])=C\c1ccc([N+](=O)[O-])o1	-19	2	0.5	-9%	-2.8	-1.7	110*
CC1CC(=O)N(Cc2ccccc2)c2ccccc2N1C=O (stereo not given)	-12	1	-0.7	-1%	0.3	-8.4	-2
Cc1nc(-c2coc3cc(OCC(=O)O)ccc3c2=O)cs1	-9	7	6.7	-1%	-1.7	3.3	-9
COCCNC(=O)Cc1ccc(Br)cc1	.	6	3.3	31%	0.7	-2.9	-3
CCn1c(SCC(=O)NCc2ccco2)nc2cccnc21	-1	-4	1.2	14%	1.6	0.1	-1
O=C(N/N=C/c1cccnc1)c1ccc(CN2c3cccc4cccc(c34)S2(=O)=O)cc1	-10	37	-3.1	17%	-3.6	0.3	6
O=C(COC(=O)c1ccccc1[N+](=O)[O-])Nc1cccnc1Cl	-64	-4	0.7	1%	1.8	-1.2	-5
O=C(c1ccc(-c2nnc(Nc3cccc(Cl)c3)c3ccccc23)cc1)N1C[C@H]2C[C@H](C1)c1cccc(=O)n1C2	2	74*	4.0	-2%	-16	4.9	4
Cc1ccc(S(=O)(=O)NN2C(=O)c3ccccc3NC2c2ccccc2)cc1 (stereo not given)	-2	-4	4.3	-7%	-3.4	-2.5	-1
CCOc1ccccc1-n1c(SCC(=O)N(CC)CC)nnc1-c1ccccn1	-32	-3	-1.7	2%	3.4	-1.2	3
Fc1ccc(Cn2cc(C(=S)N3CCOCC3)c3ccccc32)cc1	1	-1	8.9	-4%	2.1	2.7	1
O=C(c1ccc(Br)cc1)N1CCCC(c2nc(-c3cccs3)no2)C1 (stereo not given)	0	-5	-7.6	1%	5.9	-0.5	39
CC(=O)N1CCCc2cc(S(=O)(=O)NCCC3=CCCCC3)ccc21	-10	-3	-1.3	-6%	0.4	-7.2	-6
COc1ccc(Cc2nnc(Nc3ccc(C)cc3)o2)cc1OC	-8	-4	5.5	6%	-1.2	3.4	2
O=C(CSc1ncccn1)NCc1ccccc1	.	13	3.1	-1%	4.1	-6.4	?
c1coc(Cn2c(-c3ccco3)nc3ccccc32)c1	-7	7	?	6%	-0.9	-0.1	1
O=C(O)c1cc2ccccc2cc1Nc1ccccc1	99*	9	-0.5	1%	1.1	-2.0	-9
Cc1ccc(N(CC(=O)Nc2ccc(F)cc2)S(=O)(=O)N2CCCC2)cc1	-2	-8	-1.2	-3%	2.9	0.9	2
COC(=O)[C@@H]1C[C@@]2(O)[C@H](O)[C@H](O)[C@H](O)C[C@H]2N1Cc1ccc(-c2ccccc2)cc1	-10	5	4.9	-10%	1.5	-1.2	-12
Cc1ccc(C(=O)OCC(=O)Nc2ncc(C(F)(F)F)cc2Cl)cc1NC(=O)c1ccco1	13	-13	5.5	11%	4.7	4.0	4

Part of the list above, set out differently.
Molecule | ALR inh | Beta2AR agonist | RanGTP-Imp inh | Vif TR-FRET | HNF4A DNA FP | LANA-H2A inh | Calb FLC
O=C(c1ccc(-c2nnc(Nc3cccc(Cl)c3)c3ccccc23)cc1)N1C[C@H]2C[C@H](C1)c1cccc(=O)n1C2 | 2 | 74* | 4.0 | -2% | -16 | 4.9 | 4
Cc1ccc(S(=O)(=O)NN2C(=O)c3ccccc3NC2c2ccccc2)cc1 (stereo not given) | -2 | -4 | 4.3 | -7% | -3.4 | -2.5 | -1
COC(=O)[C@@H]1C[C@@]2(O)[C@H](O)[C@H](O)[C@H](O)C[C@H]2N1Cc1ccc(-c2ccccc2)cc1 | -10 | 5 | 4.9 | -10% | 1.5 | -1.2 | -12
Cc1cc(C)c(S(=O)(=O)N2CCN(C)CC2)c(C)c1 | 0 | -3 | 6.0 | 17% | 0.5 | -1.0 | 20

Next compounds:
SMILES	ALR inh	Beta2AR agonist	RanGTP-Imp inh	Vif TR-FRET	HNF4A DNA FP	LANA-H2A inh	Calb FLC
O=S(=O)(Cc1ccccc1)N=Nc1c(O)[nH]c2ccc(Br)cc12	-2	1	3.0	8%	4.3	0.7	4
COc1cc(/C=N/N(C)c2ccccc2)cc(Cl)c1O	99*	-10	-2.5	6%	-0.2	-7.2	20
Cc1ccc(-n2c(=O)c3c(C)c(C)sc3n(Cc3cc(=O)n4ccccc4n3)c2=O)cc1C	-3	-8	5.8	-13%	3.3	3.9	9
CC(C)n1c(N2CCN(C(=O)Nc3ccc(F)cc3F)CC2)nc2ccccc21	2	1	-3.9	?	1.5	-1.1	0
Cc1ccc(NC(=O)c2cc(-c3ccc(C)c(C)c3O)n[nH]2)cc1C	-3	-5	-3.4	-2%	-3.4	-5.4	1
Cc1ccc(S(=O)(=O)N2CCN(C)CC2)cc1[N+](=O)[O-]	-3	7	-1.4	30%	-2.0	1.3	-5
OCCCc1nc2ccccc2n1Cc1ccccc1	16	-3	-1.5	.	5.9	0.1	-42
O=C(Nc1ccc(Cl)cc1)N1CCCC1	25	6	1.3	5%	-1.4	-8.1	-23
CCOC(=O)c1ccc(N2C(=O)CC(Sc3nc(O)c(CC)c(=O)[nH]3)C2=O)cc1 (stereo not given)	4	3	7.8	-1%	-0.3	2.1	11
N#Cc1c(N)n(-c2ccccc2N)c2nc3ccccc3nc12	-35	11	3.0	6%	4.0	-1.3	-2
O=C(NC1CCCCC1)C(c1ccc(F)cc1)N(Cc1cccs1)C(=O)CN1C(=O)c2ccccc2S1(=O)=O (stereo not given)	0	-3	4.7	-3%	-1.3	5.1	?
C=CCN1C(=O)C(Cc2ccccc2)S/C1=N/N=C/c1cccs1 (stereo not given)	-5	3	0.3	-4%	0.5	6.7	-9
c1ccc(-c2nnsc2Sc2ccccn2)cc1	1	-6	2.6	0%	-4.3	-2.9	-17
COc1cccc(N(CC(=O)NCCSc2ccccn2)S(C)(=O)=O)c1	-5	-1	0.9	1%	-1.6	1.4	-3
CCCn1c(C2CCCN2c2nc(-c3cccc(Br)c3)cs2)nc2ccccc21 (stereo not given)	-3	1	0.2	.	1.0	1.0	-9
O=C1C=CC2C3C(=O)N(c4ccccc4)C(=O)C3C1N2Cc1ccccc1 (stereo not given)	.	29	.	-11%	-2.0	.	.
O=C(CSc1ccc(-c2ccccc2)nn1)c1cccs1	92*	-5	0.9	5%	1.8	1.3	24
CCOC(=O)N1CCC(=NNC(=O)COc2ccc(OC)cc2)CC1	14	2	-0.3	.	-1.4	-1.0	3
O=C(O)c1cccc(N2C(=O)c3cc4cccc(Br)c4cc3C2=O)c1	-1	2	3.2	-3%	-6.4	-7.2	4
CC(NC(=O)C1CCC(C)(C(=O)O)C1(C)C)c1ccccc1 (stereo not given)	18	1	13	.	0.6	15	-1
CC(C)OC(=O)C1=C(N)N2C(=O)CSC2=C(C(=O)OC(C)C)C1	3	-2	?	3%	13	1.8	5
c1ccc(-c2nn3nnnc3c3ccccc23)cc1	1	-9	3.1	10%	-1.0	3.0	?
COC(=O)[C@@H](CC(C)C)NS(=O)(=O)N(Cc1ccccc1)[C@@H](CC(C)C)C(=O)OC	-4	-1	.	.	5.5	0.0	.
Cc1ccc(NC(=O)CCc2nnc3ccc(N4CCC5(CC4)OCCO5)nn23)nc1	8	-1	2.8	-5%	2.1	-4.6	0
COc1ccc(S(N)(=O)=O)cc1C(=O)OCC(=O)N1CC(=O)Nc2ccccc21	.	5	.	0%	1.5	.	.
CCOC(=O)c1cccc(NC(=O)CCc2nc(-c3ccc(C)cc3)no2)c1	-9	8	-0.3	72%	6.4	-2.8	-2
Cc1ccc(NC(=O)CN2CCCCCC2)cc1[N+](=O)[O-]	-3	1	-0.2	.	1.5	-1.4	-1
O=S(=O)(c1ccc(-c2ccno2)s1)N1CCCCC1	-2	-3	-0.6	.	0.5	-6.7	-14
CCOc1ccc(CNC(=O)CCC(=O)N2Cc3cccc(OC)c3Oc3ncccc32)cc1	-10	1	0.4	.	1.6	-3.4	12
CC(C)CC(NC(=O)C1CCCN1C(=O)CNC(=O)OCc1ccccc1)C(=O)O (stereo not given)	-1	-7	-2.2	4%	1.4	4.7	1
O=Cc1ccc(-c2cccs2)s1	.	-4	.	-3%	-2.4	.	.
COc1ccc(-c2ccc(SCC(=O)Nc3nccs3)nn2)cc1OC	-3	7	2.5	.	4.3	-1.7	-4
Oc1ccc(C[C@H]2CNC(=S)N2CC2CCCN2C[C@H](Cc2ccc(O)cc2)N2C[C@H](Cc3ccccc3)N(CCc3ccccc3)C2=S)cc1 (stereo not given in full)	.	1	.	6%	1.0	.	.
CC1(C)Cc2c(sc(NC(=O)Nc3ccccc3)c2C(N)=O)CO1	73	-12	2.1	.	6.2	2.1	19
CCc1ccc(OCCOCC(O)CN(CCO)CCO)cc1 (stereo not given)	-5	0	-1.8	28%	0.7	-1.5	-4
Cn1c(SCC(=O)NCc2cccs2)nnc1-c1ccco1	-3	-3	-3.2	-1%	0.3	1.0	5
CN(Cc1ccc(Br)s1)C(=O)CNC(=O)c1ccc2c(c1)OCO2	-4	4	.	17%	0.2	-1.9	.
Cc1ccc(NC(=O)CS(=O)CC(=O)N(CC(=O)NC2CCCC2)c2ccc3c(c2)OCCO3)cc1 (stereo not given)	-18	-5	1.1	32%	-4.8	-3.9	-9
Clc1ccc(Oc2cnc3ccccc3n2)cc1	-10	10	-3.2	-10%	-0.1	1.7	0
CCOC(=O)c1c(NC(=O)C2CC2)sc(C)c1CC	1	11	0.2	-3%	21	1.2	-2
C/C(=N\N=C(N)N)c1ccc(C)c(C)c1	-1	1	1.5	26%	4.7	15*	9
Cn1nc(C(C)(C)C)c([N+](=O)[O-])c1C(N)=O	0	-6	6.4	23%	2.8	-0.8	-7
Cc1cc2cc(CN(Cc3cccs3)C(=S)NCc3ccco3)c(=O)[nH]c2cc1C	-19	2	0.9	.	5.5	-3.2	8
CCc1nc(N(CC)CC)c2oc3ccccc3c2n1	-5	-1	4.6	4%	3.9	2.3	0
CCOc1ccc(N(CC)C(=O)CCNC(=O)Cn2ccc3ccccc3c2=O)cc1	-9	-6	-1.7	-5%	-2.5	-2.2	44
CN(C)S(=O)(=O)c1ccc(N2CCCC2)c(C(=O)Nc2nc3ccccc3s2)c1	-1	2	9.1	13%	-2.0	-2.5	-3
Cc1ccc(Oc2ccc(N)cc2)cc1	99*	4	?	15%	1.9	-4.8	-58
NC(=O)c1ccc(-n2nc(C(F)(F)F)c3c2CCCC3)cc1	-7	-7	-1.1	.	0.6	-3.2	-7
NC(=O)c1ccsc1NC(=O)Cc1ccc([N+](=O)[O-])cc1	.	-5	.	?	2.7	-1.8	-15
CCOc1cc(N2CCOCC2)c(OCC)cc1NC(=O)COC(=O)c1ccccc1OC(F)F	.	1	.	-2%	1.5	.	.
COc1ccccc1NS(=O)(=O)c1ccc(C)c(NC(=O)NC2CCCCC2)c1	4	8	1.8	-3%	1.1	-2.9	-1
CC(NCC(O)COc1ccccc1)C1COc2ccccc2O1 (stereo not given)	-19	-3	2.3	2%	2.2	1.9	-19
COc1ccc(/C=C/C(=O)c2ccoc2)cc1	6	-1	-0.3	-1%	-4.3	-1.0	-8
Cc1cc(C)cc(Nc2ccc(C(=O)O)cc2N)c1	.	8	-4.1	26µM*!	4.3	2.6	3
